# Compound activity from PubChem.
# GLA inh pH 4.5 = qHTS Assay for Inhibitors of Human alpha-Galactosidase at pH 4.5 | purified enzyme, 4-MU-alpha-Gal fluorescence, pH 4.5 | activity change, negative = inhibition, % at 105 µM | 230,000 tested, under 10 active | AID 1467, 2008; inconclusive = small, poorly fitted or top-dose-only inhibition, or a rising curve; inactive = flat fitted curve, though single readings scatter; no compound was filed as active;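 note: 0% = full activity with enzyme and -100% = basal without enzyme; dose as in the result columns while the protocol names 77 µM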
# Target sequence (P06280 whole entry, looked up): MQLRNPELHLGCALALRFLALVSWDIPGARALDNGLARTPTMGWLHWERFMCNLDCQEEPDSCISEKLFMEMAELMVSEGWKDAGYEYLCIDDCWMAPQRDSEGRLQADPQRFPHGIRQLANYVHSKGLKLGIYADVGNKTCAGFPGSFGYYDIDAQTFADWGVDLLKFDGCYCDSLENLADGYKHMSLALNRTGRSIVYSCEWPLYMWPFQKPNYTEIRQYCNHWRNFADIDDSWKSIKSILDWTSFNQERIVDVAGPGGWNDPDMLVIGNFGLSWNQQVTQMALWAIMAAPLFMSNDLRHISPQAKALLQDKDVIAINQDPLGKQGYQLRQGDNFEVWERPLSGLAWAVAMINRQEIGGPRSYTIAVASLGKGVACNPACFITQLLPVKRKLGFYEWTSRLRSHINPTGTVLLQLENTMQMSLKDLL
# Numbers without * were called inactive; ? = inconclusive; & = joins results of further samples. Only part of the results is shown; count on the stated rates, not on these rows.
SMILES,GLA inh pH 4.5
COC(=O)[C@@H]1C[C@@]2(O)[C@H](O)[C@H](O)[C@H](O)C[C@H]2N1Cc1ccc(N2CCN(C)CC2)cc1,1.9
CCCCC[C@H](O)/C=C/[C@H]1[C@H](O)CC(=O)[C@@H]1CCCCCCC(=O)O,-2.4
C=C(C(C)=O)C(O)c1cccs1 (stereo not drawn),-4.7
Cc1noc(C)c1-c1cc(Nc2ccc(F)cc2)ncn1,-20.7
Cn1c2c(c(=O)c3ccccc31)C[C@@H](O)C(C)(C)O2,-7.0
CSc1nc(N)c2ncn([C@@H]3O[C@H](COP(=O)(O)OP(=O)(O)OP(=O)(O)O)[C@H](O)[C@H]3O)c2n1,-5.0
CC(N)=NCCC[C@H](N)C(=O)O,-2.3
C/C=C(\C)C(=O)C[Si](C)(C)c1ccccc1,-5.3
Nc1ccn(C2OC(CO)C(O)C2O)c(=O)n1 (stereo not drawn),-6.2&2.5
COc1cc(O)c(C(=O)O)c(O)c1,-5.5
CCCn1c(-c2ccc(F)cc2)nc2c(NCCCCN(C)C)nc(C)nc21,-3.2
CC(=O)OC/C=C(\C)CC/C=C(\C)CC/C=C(\C)CC/C=C(\C)CC/C=C(\C)CC/C=C(\C)CC/C=C(\C)CC/C=C(\C)CCC=C(C)C,5.9
COc1ccc2c(c1)C(=O)[C@H](OC(=O)NS(=O)(=O)c1ccc(F)cc1)[C@@H](c1ccc(OC)c(Br)c1)O2,-9.2
CC/C=C\C/C=C\C/C=C\C/C=C\C/C=C\C/C=C\CCC(=O)NCCc1ccc(O)c(O)c1,4.2
COc1ccc(OC)c([C@H](O)CNC(=O)CN)c1,0.2
CCCCCCCCCC(=O)O[C@H](CC(=O)O)C[N+](C)(C)C,1.1
CCCCC/C=C\C/C=C\C/C=C\C/C=C\CCCC(=O)O[C@H](COCCCCCCCCCCCCCCCC)COP(=O)([O-])OCC[N+](C)(C)C,?
CCCCC1=CC2=C(OC(C)=O)C(=O)C(C)(OC(=O)c3ccc(Cl)nc3)C(=O)C2=CO1 (stereo not drawn),-14.5
COC(=O)/C(=C1/OC(=O)C(c2ccccc2)=C1O)c1ccccc1,0.4
CC(C)=CCc1c(O)cc2occ(-c3ccc4c(c3)OCO4)c(=O)c2c1O,-17.9
CNc1ncncc1-c1ccc(C(=O)N(C)C)cc1,1.4
CC(C)c1ccc2c(c1)CC[C@@H]1[C@@](C)(CN)CCC[C@]21C,-5.8
Cc1nc(NCCO)c2nc(-c3ccccc3)n(CCCN(C)C)c2n1,2.3
CC(=O)OCC(=O)[C@@]1(O)[C@H](OC(C)=O)C[C@H]2[C@@H]3CCC4=CC(=O)C=C[C@]4(C)[C@@]3(F)[C@@H](O)C[C@@]21C,-4.3
CC1(Cn2ccnn2)[C@H](C(=O)O)N2C(=O)C[C@H]2S1(=O)=O (stereo partly drawn),-4.3
COc1cc(/C=C/C(=O)N2CCCCC2=O)cc(OC)c1OC,0.1
COc1ccc(Nc2ncnc3ccc(OC)cc23)cc1,-4.5
C=CC(C)(C)c1[nH]c2ccccc2c1C1=C(O)C(=O)C(c2c[nH]c3c(CC=C(C)C)cccc23)=C(O)C1=O,0.5
CCOC(=O)n1ccn(C)c1=S,-21.3&-1.8
COc1ccc2c(c1)O[C@@H](c1ccc3c(c1)OCO3)[C@H](OC(=O)NCCc1ccc(OC)c(OC)c1)C2=O,-2.0
N#C/C(=C\c1c[nH]c2ccccc12)C(=O)c1ccc(O)c(O)c1,-4.8
COc1c2ccoc2nc2c(OC)c(OC[C@H](O)C(C)(C)O)ccc12,-2.7
O=c1[nH]cnc2nc[nH]c12,2.1
C[C@@H]1C[C@@H]2[C@H]3CCC4=CC(=O)C=C[C@]4(C)[C@]3(F)[C@@H](O)C[C@@]2(C)[C@@]1(O)C(=O)CO,-3.1
CCCn1c(-c2ccc(F)cc2)nc2c(NC3CCN(Cc4ccccc4)C3)nc(C)nc21 (stereo not drawn),-14.0
COc1ccc2c(c1)OC/C(=C/c1ccc(OC)c(OC)c1)C2=O,-12.8
CC1(C)CC(=O)c2c(oc3cc4c(cc23)OCO4)C1,1.7
O=C(c1ccccc1)C1O[C@H]1c1ccccc1 (stereo partly drawn),-6.0
CC1(C)C(OC(=O)CCC(=O)O)CC[C@]2(C)C1CC[C@@]1(C)C2C(=O)C=C2[C@@H]3C[C@@](C)(C(=O)O)CC[C@]3(C)CCC21C (stereo partly drawn),4.5
O=Cc1c2[nH]c3ccccc3c2cc2[nH]c3ccccc3c12,-0.3
COc1cc([C@@H]2c3cc4c(cc3[C@@H](O[C@@H]3O[C@H]5CO[C@@H](C)O[C@@H]5[C@@H](O)[C@H]3O)[C@@H]3COC(=O)[C@@H]23)OCO4)cc(OC)c1O,15.5
Cc1cc(C(=O)NCCc2ccc(S(=O)(=O)NC(=O)NN3CCCCCC3)cc2)no1,0.4
CC(C)OC(=O)c1cc2c(OC[C@@H](O)CNC(C)(C)C)cccc2[nH]1,-6.1
COC(=O)[C@@]1(Cc2ccccc2)[C@H]2c3cc(C(=O)N(C)C)n(Cc4cc(F)c(F)c(F)c4)c3C[C@H]2CN1C(=O)c1ccccc1,-8.6
COC(=O)[C@H]1C(OC)[C@@H](OC(=O)c2cc(OC)c(OC)c(OC)c2)C[C@@H]2CN3CCc4c([nH]c5cc(OC)ccc45)[C@H]3C[C@H]21 (stereo partly drawn),-10.9
C[C@]12C=CC(=O)C=C1CCC1C2C(=O)C[C@]2(C)C1CC[C@]2(O)C(=O)CO (stereo partly drawn),0.7
CC1CC[C@]2(CO)CC[C@]3(C)C(=CCC4[C@@]5(C)CCC(O)C(C)(C)C5CC[C@@]43C)C2C1C (stereo partly drawn),11.1
Cc1cccc(O)c1,-1.8
Cc1cc(C)cc(-c2cc3c(c(-c4c(O)c(-c5cc(C)cc(C)c5)cc5c4CCCC5)c2O)CCCC3)c1,0.6
CC1=C(C(=O)OCc2ccccc2)C(C2CCCCC2)NC(=O)N1CCCCCC(=O)O (stereo not drawn),1.1
O=C1c2ccccc2S(=O)(=O)N1CCCCN1CCN(c2ncccn2)CC1,1.3
CCn1c(=O)[nH]c2ccccc21,-13.1
CCCCCCN(C(=O)CCCCCN1C(=O)NC(c2ccc(-c3ccccc3)cc2)C(C(=O)OCc2ccccc2)=C1C)C(C(=O)NCCCC)c1ccc(OCC(=O)O)c(C(=O)O)c1 (stereo not drawn),-2.9
CC1(C(=O)NCCCNc2ncc(C(F)(F)F)cc2Cl)C=CC2(CCCCC2)N1C(=O)c1ccccc1 (stereo not drawn),-16.3
Fc1cccc(/C=N\N=C/c2cccc(F)c2)c1,-11.6
CN1CCN(c2nc(-c3cccc(C#N)c3)nc3ccccc23)CC1,-9.4
CCCCC/C=C\C=C\[C@@H](O)CCCCCCCC(=O)O,4.3
CCCCCC(=O)Cc1cc(O)cc(O)c1C(=O)Oc1cc(CC(=O)CCCCC)c(C(=O)O)c(OC)c1,2.9
CCCCc1nc2c(c3c1C[C@H](C)OC3)CN(S(=O)(=O)c1ccc(NC(C)=O)cc1)CC2,7.1
Cc1cccc(C(=O)N2CCC(=O)N([C@H](COCc3ccccc3)Cc3ccccc3)CC2)c1,-8.8
# Later entries
SMILES,GLA inh pH 4.5
Nc1nc2[nH]c(=O)c(=O)[nH]c2c(=O)[nH]1,-5.2
CC(C)OC(=O)[C@@H]1CC[C@H](C)[C@@H](CCC[C@@H]2C[C@@H](O)C[C@H](CC#N)O2)O1,-4.7
CCC1=C2CC[C@H]3C(=O)NC(=O)[C@H]3[C@H]2[C@@]2(C)C(=NCC(=O)OC)OC(=O)N2C1=O,8.8
COCC1C2CC[C@H]3C(OCc4ccc(OC)cc4)OC[C@]4(C)[C@H]3C2=C(CN4C(=O)OC(C)(C)C)[C@H](C)C1COC (stereo partly drawn),-3.5
CNC(=O)[C@H]1O[C@@H](n2cnc3c(N)ncnc32)[C@H](O)[C@H]1O,0.3
CC/C=C\C/C=C\C/C=C\C/C=C\C/C=C\C/C=C\CCC(=O)O,3.8
CC(C)[C@@H](CC(=O)N[C@@H]1CCCC[C@H]1C(=O)N[C@H](CC(=O)N[C@@H](CCC(=O)O)CC(=O)O)Cc1ccccc1)NC(=O)C[C@H](CO)NC(=O)[C@@H]1CCCC[C@H]1N,-2.7
N#Cc1ccc(CS(=O)(=O)c2nc3ccccc3s2)cc1,-1.5
CC(C)[C@@H](CC(=O)N[C@@H]1CCNC[C@H]1C(=O)N[C@H](CC(=O)N[C@@H](CCC(=O)O)CC(=O)O)Cc1ccccc1)NC(=O)C[C@H](CO)NC(=O)[C@@H]1CCCC[C@H]1N,-7.9
O=C(NC1CCCCC1)NC1CCCCC1,14.3
C/C=C(/CC[C@@H](C)[C@H]1CCC2C3=CC[C@H]4[C@H](C)[C@@H](O)CC[C@]4(C)C3CC[C@@]21C)C(C)C (stereo partly drawn),-14.4
NC(=NCCC[C@H](N)C(=O)O)NO,-1.6

# An excerpt of these results, bar-delimited.
SMILES | GLA inh pH 4.5
COc1cc([C@@H]2c3cc4c(cc3[C@@H](O[C@@H]3O[C@H]5CO[C@@H](C)O[C@@H]5[C@@H](O)[C@H]3O)[C@@H]3COC(=O)[C@@H]23)OCO4)cc(OC)c1O | 15.5
Cc1cc(C(=O)NCCc2ccc(S(=O)(=O)NC(=O)NN3CCCCCC3)cc2)no1 | 0.4
CC(C)OC(=O)c1cc2c(OC[C@@H](O)CNC(C)(C)C)cccc2[nH]1 | -6.1
COC(=O)[C@@]1(Cc2ccccc2)[C@H]2c3cc(C(=O)N(C)C)n(Cc4cc(F)c(F)c(F)c4)c3C[C@H]2CN1C(=O)c1ccccc1 | -8.6

# (more compounds)
SMILES,GLA inh pH 4.5
CCCNC(=O)N1N=C(c2ccc(N)cc2)c2cc3c(cc2[C@H]1C)OCO3,-3.0
CCC1=C2CC[C@H]3C(=O)NC(=O)[C@H]3[C@H]2[C@@]2(Cc3ccccc3)C(=NCC3CC3)OC(=O)N2C1=O,-4.1
CC(=O)Oc1ccc(C2(c3ccc(OC(C)=O)cc3)C(=O)Nc3ccccc32)cc1,-12.5
COc1cc(C(=O)OC2CC[C@]3(C)C4CCC5[C@]6(O)CC(O)[C@]7(O)C(CN8CC(C)CCC8[C@]7(C)O)[C@]6(O)C[C@@]53O[C@]24O)cc(OC)c1OC (stereo partly drawn),-0.1
CC(C)C[C@@H](CC(=O)N[C@@H](CCCN)CC(=O)N[C@@H]1CCNC[C@H]1C(=O)N[C@H](CC(=O)N[C@@H](CCC(=O)O)CC(=O)O)Cc1ccccc1)NC(=O)[C@@H]1CCCC[C@H]1N,-7.8
O=C(O)C1OC(O)C(O)C(O)C1O (stereo not drawn),-4.0
COc1ccc([C@@H]2CC(=O)c3c(O)cc(O[C@H]4O[C@@H](CO[C@H]5O[C@@H](C)[C@@H](O)[C@@H](O)[C@@H]5O)[C@@H](O)[C@@H](O)[C@@H]4O)cc3O2)cc1O,-1.9
CC(=O)N1[C@H](C)C=C[C@]1(Cc1ccccc1)C(=O)NCc1ccc(C)o1,2.0
COC(=O)[C@@]1(Cc2ccccc2)[C@H]2c3cc(C(=O)N(C)C)n(CCSCCO)c3C[C@H]2CN1C(=O)c1ccccc1,-6.3
COc1ccc(/C=C/C(=O)c2ccc(O)cc2O)cc1,10.8
CC(C)=CCC/C(C)=C\COc1c2ccoc2cc2oc(=O)ccc12,-12.7
CCCn1c(=O)c2[nH]c(-c3ccc(OCC(=O)Nc4ccc(C(C)=O)cc4)cc3)nc2n(CCC)c1=O,-5.3
COc1ccc2c(c1)C(=O)[C@H](OC(=O)NCc1ccc3c(c1)OCO3)[C@@H](c1ccc(OC)c(Br)c1)O2,6.7
C[C@H]1[C@H]2CC[C@H]3[C@@H]4CC=C5C[C@@H](N(C)C)CC[C@]5(C)[C@H]4CC[C@]23CN1C,-14.0
CCCCCCCCCCCCCCCC(=O)OC(CO)CO,-19.3
COc1ccccc1N1CCN(C[C@@H]2CN3C(=O)N(C)c4ccccc4C3=N2)CC1,3.8
Cc1cnc(CNc2ncnc3ccc(-c4cccc(C#N)c4)cc23)cn1,-19.8
Cc1cc(CNC(=O)[C@H](C)[C@H]2C[C@]2(C)[C@H](NC(=O)OCc2ccccc2)c2ccccc2)nn1C,-9.4
COC(=O)[C@@]1(Cc2ccc(F)cc2)[C@H]2c3cc(C(=O)N4CCCC4)n(Cc4cc(F)cc5c4OCOC5)c3C[C@H]2CN1C(=O)c1ccccc1,-0.6
CCCCCCOC(=O)C1(O)CC2OC1(C)n1c3ccccc3c3c4c(c5c6ccccc6n2c5c31)C(=O)NC4 (stereo not drawn),-17.4
Cc1cc2c(cc1Cl)N(C(=O)Nc1ccnc3ccccc13)CC2,-3.8
Cn1cc(C2=C(c3cn(CCCSC(=N)N)c4ccccc34)C(=O)NC2=O)c2ccccc21,-9.4
COc1ccc2c(c1)OC1(O)COc3cc(OC)c(OC)cc3C1=C2 (stereo not drawn),4.3
COC(=O)c1ccc(C(NC(=O)OCc2ccccc2)/C(=C/[C@@H](C)C(=O)NCc2ccc(S(C)(=O)=O)cc2)c2cccnc2)cc1 (stereo partly drawn),-2.9
O=C(O)c1ccccc1OP(=O)(O)O,5.7&2.7
CC1(C)CC[C@]2(C)CC[C@@]3(C)C(=CCC4[C@@]5(C)CCC(O)C(C)(C)C5CC[C@@]43C)C2C1 (stereo partly drawn),-0.5

# Structural class, the entries above containing a furan ring, fused or not
SMILES,GLA inh pH 4.5
COc1c2ccoc2nc2c(OC)c(OC[C@H](O)C(C)(C)O)ccc12,-2.7
CC1(C)CC(=O)c2c(oc3cc4c(cc23)OCO4)C1,1.7
CC(=O)N1[C@H](C)C=C[C@]1(Cc1ccccc1)C(=O)NCc1ccc(C)o1,2.0
CC(C)=CCC/C(C)=C\COc1c2ccoc2cc2oc(=O)ccc12,-12.7
